# TRPML1 ag: activates the human TRPML1 channel; Q9GZU1; TRPML1-expressing cells, Ca2+ dye fluorescence, FDSS; host cell line not named in the record; reference of the full effect not given here; activation, % (test concentration not listed); hit rate 0.12% among 410,000; AID 624414; in the data active = activation above about 50%; inconclusive = about 30% to 50%; inactive = below about 30%; note: 0% is about no effect; the text of the record puts the active cut at 80%
#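 Agonist activity was taken from a 110 s kinetic Ca2+ dye read on the FDSS after pinning compounds onto TRPML1-DL cells. The cells were seeded at 1,500/well with Tet inducer, incubated about 16 h, then dye-loaded at room temperature.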
# TRPML1 blocker: inhibitors of human TRPML1 channel. Q9GZU1. TRPML1-inducible cells, Ca2+ dye fluorescence, FDSS; stronger effect = lower value; inhibition of EC80 agonist-evoked calcium signal. activity change, negative = inhibition, % (test concentration not listed). hit rate 0.02% among 390,000; in the data active means activity change below about -50%; inconclusive means about -30% to -50%; inactive means above about -30%;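 note: stimulus is agonist 54-4 at its EC80 concentration; % is set by controls: 0 for no effect and ±100 for the full control effect; compound concentration not given in the record; the text of the record puts the active cut at -80%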
#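 Calcium fluorescence in TRPML1-DL cells induced overnight with Tet: a 110 s read after compound pin addition, then a 110 s antagonist read after challenge with 54-4 at 4 uM final (EC80).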
# Six1-Eya2 inh: blocks human Six1 binding to Eya2; AlphaScreen GST-Six1/His-Eya2 binding, biochemical; stronger effect = lower value; control for the full effect not named in the record; activity change, % (no concentration beside the values); AID 651725; hit rate 0.56% among 360,000; in the data active = activity change below about -65%; inconclusive = about -30% to -65%; inactive = above about -30%; note: % is set by controls: 0 for no effect and ±100 for the full control effect; compound concentration not given in the record
# Target sequence (O00167 whole entry, looked up): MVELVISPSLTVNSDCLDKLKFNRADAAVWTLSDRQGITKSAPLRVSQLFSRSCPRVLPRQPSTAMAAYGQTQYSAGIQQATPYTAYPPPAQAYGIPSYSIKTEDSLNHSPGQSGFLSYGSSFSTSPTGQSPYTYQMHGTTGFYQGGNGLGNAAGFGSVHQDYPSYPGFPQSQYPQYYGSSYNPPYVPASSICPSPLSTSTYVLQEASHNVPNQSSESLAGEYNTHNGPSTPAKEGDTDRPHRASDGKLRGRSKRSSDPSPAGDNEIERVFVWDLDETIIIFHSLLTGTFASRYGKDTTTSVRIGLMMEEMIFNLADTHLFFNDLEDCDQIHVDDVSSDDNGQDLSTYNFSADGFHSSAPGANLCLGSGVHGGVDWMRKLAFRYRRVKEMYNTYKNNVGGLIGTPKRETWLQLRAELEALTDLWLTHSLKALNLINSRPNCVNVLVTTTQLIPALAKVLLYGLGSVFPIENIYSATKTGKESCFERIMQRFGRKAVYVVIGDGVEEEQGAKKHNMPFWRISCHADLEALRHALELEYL
# Target sequence (Q15475 whole entry, looked up): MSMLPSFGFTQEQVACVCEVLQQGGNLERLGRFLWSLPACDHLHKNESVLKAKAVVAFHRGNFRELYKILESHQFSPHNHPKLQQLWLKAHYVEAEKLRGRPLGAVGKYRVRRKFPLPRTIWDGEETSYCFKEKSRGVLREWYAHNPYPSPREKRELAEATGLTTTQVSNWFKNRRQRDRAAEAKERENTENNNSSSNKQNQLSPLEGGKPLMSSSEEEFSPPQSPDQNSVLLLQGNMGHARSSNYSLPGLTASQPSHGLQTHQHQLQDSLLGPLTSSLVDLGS
#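 Six1/Eya2 binding was read as AlphaScreen signal after compounds were pinned into GST-Six1 plus His-tagged Eya2 (5X stock 250/500 nM) in pH 8.0 Tris/NaCl/TCEP buffer, beads added, then incubated 1 h, 37 C, dark.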
# CtBP-E1A blk: inhibitors of CtBP/E1A interaction. activity change, % (concentration not given with the values). AID 651724. hit rate 0.49% among 340,000. AlphaScreen GST-E1A/His-CtBP binding, 1536-well; stronger effect = lower value; control for the full effect not named in the record; in the data active means activity change below about -65%; inconclusive means about -30% to -65%; inactive means above about -30%; note: % is set by controls: 0 for no effect and ±100 for the full control effect
#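 In 5 uL wells, 23 nL compound meets equimolar GST-E1A and His-CtBP (5X stock 125 nM each) for 2 h, 37 °C. Beads (5X, 50 ug/mL) then 1 h, 37 °C, dark.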
# D2 PAM: potentiates the human D2 dopamine receptor allosterically | AID 624464 | DiscoveRx D2 beta-arrestin cells, luminescence, 90 min; 100% = 57 uM dopamine signal | hit rate 0.23% among 360,000 | potentiation, % (no concentration beside the values) | P14416; active = potentiation of 50% or more; inconclusive = 30% to 50%; inactive = 30% or less;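 note: compound concentration not given in the record; tested on top of an EC20 dose of dopamine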
#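 D2 cells co-treated with compound plus 50 nM dopamine (EC20) for 90 min at 37 deg C to detect potentiation. Beta-arrestin recruitment was read as enzyme-fragment luminescence after 1 h at ambient temperature. Full response was set by 57 uM dopamine.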
# TRPV1 potentiator: human TRPV1 potentiation | Q8NER1 | TRPV1-expressing cells, Fluo-8 calcium influx, capsaicin EC20 potentiation; host cell line not named in the record; control for the full effect not named in the record | hit rate 0.02% among 320,000 | AID 540277 | potentiation, % at 8.33 µM; active means potentiation above 80%; inconclusive means 30% to 80%; inactive means below 30%; note: 0% is about no effect
#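 Fluo-8 calcium influx in TRPV1-expressing cells, kinetic read (ex 480/em 520 nm). Compound added and read 3 min for agonist activity, followed by capsaicin at EC20 final and 2 min further read for enhancement.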
# The depositor's hits bear a star; ? = inconclusive; / = not tested or not shown; & = joins results of further samples. Outcome played no part in choosing rows, and some 0.95% of all compounds hit somewhere here.
SMILES,TRPML1 ag,TRPML1 blocker,Six1-Eya2 inh,CtBP-E1A blk,D2 PAM,TRPV1 potentiator
O=C(COC(=O)Cc1c(Cl)cccc1Cl)Nc1ccc2[nH]c(=O)[nH]c2c1,-0.4,1.1,-22.7,-2.7,-0.3,2.6
C=CCc1cccc2cc(C(=O)Nc3ccc(NC(C)=O)cc3)c(=O)oc12,-0.5,-2.1,7.7,-1.4,-4.4,2.6
CCOc1ccccc1-n1c(SC(C)C(=O)NCC2CCCO2)nc2ccccc2c1=O (stereo not given),0.7,19.2,2.5,-7.4,-3.6,-28.9
CCOC(=O)C/C(N)=N/NC(=O)c1ccc(Cl)cc1Cl,-0.1,-2.9,11.3,-13.7,-22.6,4.2
C#CCOCCOCCOCCNc1nc(N2CCN(C(=O)[C@H](CCC(=O)O)n3cc(C(N)CO)nn3)CC2)nc(N2CCN(C(=O)[C@H](Cc3cc4ccccc4[nH]3)n3cc(C(N)[C@H](C)CC)nn3)CC2)n1 (stereo not given in full),0.3,-18.3,-19.2,/,-3.1,-4.7
CC(=O)c1cc(F)c(N2CCN(C(=O)Cc3ccccc3)CC2)cc1C,1.3,27.9,6.3,-1.0,3.2,?
Cc1occc1C(=O)N/N=C/c1ccccn1,-0.5,5.1,-21.0,?,-2.4,0.8
COc1cccc(CN(C)CC(=O)Nc2c(C)cccc2C(C)C)c1,0.0,22.0,1.8,-5.4,-7.5,-20.1
CS/C(=C\C(=O)c1ccco1)Nc1ccccc1Cl,2.0,-17.3,-17.5,-18.3,-3.0,-14.2
CC1CCCN(c2ccc(/C=C(\C#N)c3nn(-c4ccccc4)c(N)c3C#N)cc2[N+](=O)[O-])C1 (stereo not given),-0.1,-3.2,?,?,-23.1,-6.7
CCOc1ccc(NC(=O)CCc2nnc3ccc(N4CCC5(CC4)OCCO5)nn23)cc1,-1.0,-5.9,0.8,-3.3,-1.1,2.0
O=C(CN(C(=O)CCC(=O)Nc1nccs1)c1ccc2c(c1)OCO2)NCC1CCCO1 (stereo not given),0.7,-8.0,12.5,0.1,-18.8,1.1
CCCCOCCCNC(=O)CCCOc1ccccc1,0.2,-2.3,-0.7,1.0,-3.0,-5.6
Cc1ccc(-c2nnn(CC(=O)NC3CCCc4ccccc43)n2)cc1 (stereo not given),2.9,-19.8,-0.1,-9.2,-21.0,5.3
Cc1cc(NC(=O)CSc2nc(=O)cc(N)n2-c2ccc(F)cc2)no1,0.7,6.1,-0.9,7.9,4.0,3.9
COC(=O)C1=C(C)NC(C)=C(C(=O)OC)C1c1cc2ccc(C)cc2[nH]c1=O,1.5,-19.8,-11.5,-8.5,-32.0,-15.9
O=c1oc(-c2ccccc2NS(=O)(=O)c2ccccc2)nc2ccccc12,-0.7,-3.4,14.3,1.1,-7.9,6.2
Cc1ccc(OCC(=O)OCC(=O)Nc2sccc2C(N)=O)cc1C,-0.7,3.1,6.4,6.9,4.2,13.5
COCCCNC(=O)C(F)(F)C(F)(F)C(=O)NCCCOC,0.0,8.3,-0.6,-3.1,1.8,-1.1
COC(=O)C1=C(C)N(Cc2ccccc2)C(=NCc2cccc(Cl)c2)N[C@H]1c1cccc(F)c1,1.0,20.1,-6.3,-1.2,-11.9,-13.8
COc1cc(/C=C2\S/C(=N/S(=O)(=O)c3ccccc3)NC2=O)c([N+](=O)[O-])cc1OC,1.6,-12.6,-19.2,-18.5,-1.2,-3.4
COC(=O)c1nnn(CC(=O)Nc2ccc(C)c(F)c2)c1C(=O)OC,-0.3,-12.6,-1.9,-2.2,-14.7,?
CC1(C(=O)NCc2ccccc2Br)CCN1Cc1c(F)cccc1F (stereo not given),-1.3,/,-0.4,0.3,-0.7,/
Cc1cc(C(=O)N/N=C2\CCCC(=O)C2)c2ccccc2n1,-0.1,-8.7,-24.4,?,-2.1,4.1
COCC(=O)Nc1cc(=O)n(C)c(=O)n1C,-0.4,1.7,3.6,2.5,-3.0,9.6

# As entered above.
# For D2 PAM, COCCCNC(=O)C(F)(F)C(F)(F)C(=O)NCCCOC reads 1.8
# For D2 PAM, COCC(=O)Nc1cc(=O)n(C)c(=O)n1C reads -3.0

# Further entries
SMILES,TRPML1 ag,TRPML1 blocker,Six1-Eya2 inh,CtBP-E1A blk,D2 PAM,TRPV1 potentiator
Cc1cc2cc(CNC(=O)C(C)Oc3ccccc3)ccc2n1C (stereo not given),-0.2,1.9,-22.9,2.8,-1.1,-3.9
COCc1nnc(NC(=O)c2ccco2)s1,0.5,-9.2,1.6,3.3,-15.2,-2.6
Clc1ccc(C2Nc3cccc4cccc(c34)N2)cc1Cl,-0.8,10.3,-5.3,/,1.3,2.9
O=C(CCCOc1ccc(Cl)cc1Cl)Nc1ccc(O)cc1C(=O)O,2.7,0.9,-4.9,2.8,2.0,1.2
COC(=O)Cn1cnc2c(nnn2Cc2ccc(Cl)cc2)c1=O,3.4,1.6,3.1,2.4,-8.9,-6.7
CC1CCCN(C(=O)COC(=O)c2ccc[nH]c2=O)C1 (stereo not given),-0.4,-22.5,-0.9,6.3,-8.6,11.2
Oc1ccc2ccccc2c1CN1CCN(c2ccccc2F)CC1,1.3,15.5,-1.4,-2.7,-18.5,-5.6
Cc1ccc(N2C(=O)CC(N3CCN(S(=O)(=O)c4ccccc4)CC3)C2=O)c(C)c1 (stereo not given),-0.2,-2.8,-0.9,3.6,-2.5,5.1
COc1ccc(N2CC(C(=O)N[C@@H](C)C(=O)N[C@H](CO)c3ccccc3)CC2=O)cc1 (stereo not given in full),-0.1,-10.2,-3.5,0.4,-4.2,5.6
O=C(c1ccc(N2CCN(C3CC(=O)N(Cc4cccs4)C3=O)CC2)cc1)c1cccnc1 (stereo not given),0.2,9.5,2.6,1.3,10.8,-3.6
O=C1NC2(CCCc3ccccc32)C(=O)N1Cc1nnc(-c2ccccc2Br)o1 (stereo not given),0.2,-7.2,-10.9,-1.0,11.8,-4.2
CCOC(=O)c1cnc(SC)nc1Oc1cccc(NC(=O)c2ccc(Cl)cc2)c1,0.6,-7.3,6.6,2.1,15.8,-2.3
CC(=O)OC(C(=O)N1CCN(c2ccccc2F)CC1)c1ccccc1 (stereo not given),-0.2,7.9,4.5,5.9,9.3,0.3
CC(Cc1cccs1)NC(=O)Nc1ccccc1 (stereo not given),0.1,27.1,0.9,-8.4,-0.5,-10.6
CC(=O)Nc1ccc(NC(=O)CSC2=NCCS2)cc1,0.5,-12.9,3.3,4.2,9.8,-2.8
C[C@@H]1CN([C@H](C)CO)C(=O)c2cc(NC(=O)Nc3ccc(C(F)(F)F)cc3)ccc2O[C@H]1CN(C)Cc1ccc(Cl)c(Cl)c1,-1.0,-3.5,-0.8,3.1,7.4,/
O=C(Nc1ccc(F)c([N+](=O)[O-])c1)c1cccs1,2.8,4.2,-4.0,-0.3,5.9,-2.4
Cc1c(OCC(=O)NCc2cccnc2)ccc2c3c(c(=O)oc12)CCCC3,-1.4,5.0,2.1,4.4,1.1,13.3
Cc1ccc(-n2c(C)cc(C(=O)CN3CCCCC3)c2C)cc1,1.5,0.8,-13.6,-0.5,-13.2,8.2
O=C(Nc1cccc(F)c1)C1CCCN(S(=O)(=O)c2cccc3cccnc23)C1 (stereo not given),-1.1&0.1,13.6&-1.3,-2.4,-0.9,4.4,12.3
Cc1ccc2c(c1)nnn2C1CCN(CC(=O)N2CCN(c3ccc(F)cc3)CC2)CC1,1.8,-7.8,23.3,2.1,-6.6,-13.1
CSc1ncc(Cl)c(C(=O)Nc2ccc(C)c(C)c2)n1,2.2,?,13.8,2.7,-16.7,16.7
COc1ccc(Sc2nc(-c3ccccc3)ncc2OC)cc1,2.3,1.1,11.6,6.2,-3.7,-4.6
O=C(c1cc(-c2ccc(O)cc2)on1)N1CCN(c2ccc(F)cc2)CC1,0.9,-12.7,-10.1,2.7,3.9,-19.2
CCCc1ccc(-c2csc(NC(=O)Cc3cccs3)n2)cc1,1.3,-3.0,13.6,-0.9,-5.7,?

# Following part:
SMILES,TRPML1 ag,TRPML1 blocker,Six1-Eya2 inh,CtBP-E1A blk,D2 PAM,TRPV1 potentiator
COc1ccc(Cn2c(C)nc3oc4cc(OC)ccc4c(=O)c3c2=O)cc1,1.2,-0.5,-25.0,-2.2,-37.7,20.4
N#C/C(C(=O)Oc1ccccc1)=C1\C=Cc2ccccc2N1,1.2,10.0,24.8,18.5,-10.9,3.2
COCCNc1oc(-c2ccc(Cl)cc2)nc1C#N,0.1,-7.8,-13.1,-3.3,-5.7,-2.0
CC(=O)c1ccc(OCCCC(=O)Nc2cccc(S(=O)(=O)N3CCCCCC3)c2)cc1,0.3,19.3,-23.3,-4.5,-4.7,/
Cc1cc(C)c([N+](=O)[O-])cc1-c1ccc(/C=N/NC(=O)c2nonc2N)o1,1.1,0.4,?,?,4.0,28.8
CCC[C@H]1CN(c2ccccc2)C(=O)[C@@H]1CC(=O)Nc1ccc(Br)cc1,-0.8,11.9,3.5,1.5,1.0,/
O=C(CNC(=O)c1ccc(Cl)cc1)OCc1nc2ccccc2s1,3.5,45.3,4.4,15.9,-10.5,-5.6
CC(=O)N1CCN(S(=O)(=O)c2cccc(C(=O)Nc3ccccc3N3CCCCC3)c2)CC1,0.8,-16.0,3.4,-21.4,28.3,-4.3
Cc1cc(C(=O)Nc2nc3c(s2)CCCC3)cs1,2.0,-17.6,-6.3,-7.2,-2.6,-16.8
CC/C(=N\NC(=S)NC(C)C)c1ccc(OC(F)F)cc1,1.8,19.0,-2.9,-7.7,-3.0,-8.3
CCOc1ccc(CC(=O)Nc2sc(Cc3ccccc3)cc2C(N)=O)cc1OCC,2.1,-0.3,-7.8,1.1,-5.2,0.0
COc1ccc(C(=O)Nc2c(F)c(F)c(F)c(F)c2F)c(OC)c1,-0.4,-22.7,10.3,10.2,13.3,2.7
CCOc1ccc(N=C2NC(=O)/C(=C/C(=O)OC)S2)cc1,0.0,10.3,0.0,14.4,-5.3,4.6

# By substructure: those above containing an aryl methoxy group.
SMILES,TRPML1 ag,TRPML1 blocker,Six1-Eya2 inh,CtBP-E1A blk,D2 PAM,TRPV1 potentiator
COc1cccc(CN(C)CC(=O)Nc2c(C)cccc2C(C)C)c1,0.0,22.0,1.8,-5.4,-7.5,-20.1
COc1cc(/C=C2\S/C(=N/S(=O)(=O)c3ccccc3)NC2=O)c([N+](=O)[O-])cc1OC,1.6,-12.6,-19.2,-18.5,-1.2,-3.4
COc1ccc(N2CC(C(=O)N[C@@H](C)C(=O)N[C@H](CO)c3ccccc3)CC2=O)cc1 (stereo not given in full),-0.1,-10.2,-3.5,0.4,-4.2,5.6
COc1ccc(Sc2nc(-c3ccccc3)ncc2OC)cc1,2.3,1.1,11.6,6.2,-3.7,-4.6
COc1ccc(Cn2c(C)nc3oc4cc(OC)ccc4c(=O)c3c2=O)cc1,1.2,-0.5,-25.0,-2.2,-37.7,20.4
COc1ccc(C(=O)Nc2c(F)c(F)c(F)c(F)c2F)c(OC)c1,-0.4,-22.7,10.3,10.2,13.3,2.7

# Complete entries, looked up by structure. Screens in order: TRPML1 ag | TRPML1 blocker | Six1-Eya2 inh | CtBP-E1A blk | D2 PAM | TRPV1 potentiator
# CC(=O)c1ccc(OCCCC(=O)Nc2cccc(S(=O)(=O)N3CCCCCC3)c2)cc1 across the screens: 0.3 | 19.3 | -23.3 | -4.5 | -4.7 | /
# COc1ccc(Cn2c(C)nc3oc4cc(OC)ccc4c(=O)c3c2=O)cc1 across the screens: 1.2 | -0.5 | -25.0 | -2.2 | -37.7 | 20.4
